DUX4 txn inh – blocks DUX4-driven transcriptional activation; 293T-iDUX4 ZSCAN4-Gaussia luciferase reporter, 24 h; stronger effect = lower value; activity change, negative = inhibition, % (test concentration not listed); hit rate 0.8% among 37,000; AID 1224904;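 active = -10% or lower and over 25 points stronger than a control reporter; inconclusive = -10% or lower with a smaller gap; inactive = above -10%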;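 also: 0% = median of neutral control wells and -100% = median of positive control wells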
DUX4 txn inh difference – second read-out of DUX4 txn inh, no call of its own (marks repeat the call); Gaussia minus Italica difference, %; measured here: selective DUX4 reporter inhibition;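 worked out from the two reporters; negative = selective loss of the DUX4 reporter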
DUX4 txn inh control – further read-out of DUX4 txn inh, marked with its call; activity change, negative = inhibition, %; measured here: Italica tet-on control reporter;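 0 = neutral control and -100 = positive control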
* = called active by the depositor; ? = inconclusive; / = no result given; & = joins results of further samples.

DUX4 txn inh,DUX4 txn inh difference,DUX4 txn inh control,Compound
-3,-2,-1.3,CC(C)NC(=O)N1[C@H](CO)[C@@H](c2ccccc2)[C@H]1CN(C)C(=O)c1ccncc1
-3,0,-2.9,C[C@H]1CN([C@@H](C)CO)C(=O)CCCn2nncc2CO[C@H]1CN(C)C(=O)Nc1ccc(F)cc1
0,-5,4.3,CN1C[C@@H]2[C@H](c3ccccc31)[C@@H](CO)N2S(=O)(=O)c1ccccc1
2,6,-4.2,COC(=O)C[C@H]1C[C@@H]2c3cc(NC(=O)c4ccc5c(c4)OCO5)ccc3O[C@@H]2[C@H](CO)O1
0,4,-4.5,COCC(=O)N1[C@@H](CO)[C@@H]2c3ccccc3N(C(=O)NC(C)C)C[C@@H]21
1,-2,3.1,CO[C@H]1CN(C)C(=O)c2cc(NC(C)=O)ccc2OC[C@@H](C)N(C(=O)c2cccnc2)C[C@@H]1C
1,2,-1.0,CO[C@@H]1CC[C@@H]2CCN(C)C(=O)[C@H](C)N(C)C(=O)c3cc(C#N)ccc3OC[C@@H]1O2
?,/,/,O=C(Nc1ccc(Cl)cc1)N[C@H]1CC[C@@H](CCn2cc(-c3ccccc3F)nn2)O[C@@H]1CO
-2,-3,1.1,O=C(C[C@H]1CC[C@H](NC(=O)Nc2cc(F)ccc2F)[C@@H](CO)O1)NCc1ccncn1
-3,1,-3.1,COCC(=O)Nc1ccc2c(c1)[C@H]1C[C@@H](CC(=O)NCc3ccc4c(c3)OCO4)O[C@H](CO)[C@H]1O2
2,-3,4.6,CCc1cnc(N2[C@@H](C#N)[C@H](c3ccc(C#CCC4CCCC4)cc3)[C@@H]2CO)s1
?,/,/,C[C@H]1CN([C@@H](C)CO)C(=O)CCCn2nncc2CO[C@H]1CN(C)S(=O)(=O)c1ccc(-c2ccccc2)cc1
-3,-3,-0.3,O=C(c1ccccn1)N1CC2(C1)[C@@H](c1ccccc1)[C@H](CO)N2C(=O)CC1CC1
-9,-4,-5.1,CCCC#Cc1ccc([C@@H]2[C@H]3CN(C(=O)Nc4cccc(F)c4)CC(=O)N3[C@H]2CO)cc1
-2,2,-4.0,CNC[C@@H]1OCCCC[C@H](C)Oc2ccc(NS(=O)(=O)c3ccc(F)cc3)cc2C(=O)N([C@@H](C)CO)C[C@@H]1C
-6,-8,2.3,C[C@@H]1CN([C@H](C)CO)S(=O)(=O)c2ccc(-c3cccnc3)cc2O[C@@H]1CN(C)C(=O)CC1CC1
0,0,0.1,O=C(c1cccnc1)N1C[C@@H]2[C@H](c3ccccc31)[C@@H](CO)N2C(=O)CN1CCOCC1
4,-4,7.8,CCNC(=O)C[C@H]1CC[C@@H]2[C@H](COC[C@H](O)CN2C(=O)C2CCCC2)O1
?,/,/,COc1ccc(-c2ccc3c(c2)[C@@H]2[C@@H](CCN2S(=O)(=O)c2ccccc2F)[C@@H](CO)N3)cc1
?,/,/,O=C1CNC[C@H]2[C@H](c3ccc(C#CC4CCCCC4)cc3)[C@H](CO)N12
-7,2,-9.1,O=C(C[C@@H]1CC[C@H]2[C@@H](COC[C@H](O)CN2Cc2cc(F)ccc2F)O1)N1CCc2ccccc2C1
2,4,-2.6,CN1C(=O)c2cc(NC(=O)c3cccs3)ccc2OC[C@H]2O[C@@H](CC(=O)O)CC[C@H]21
-7&2,6&-6,-13&7.9,COc1ccccc1CN1[C@@H]2CNC[C@H]1C2c1ccc(-c2cccc(C#N)c2)cc1 (stereo partly drawn)
2,1,1.1,Cc1noc(C)c1S(=O)(=O)N(C)C[C@H]1Oc2ccc(N(C)C)cc2C(=O)N([C@H](C)CO)C[C@@H]1C
?,/,/,O=C(C[C@H]1CC[C@H]2[C@@H](COC[C@@H](O)CN2CC2CCCCC2)O1)NCc1ccc(F)cc1
-6,-5,-1.0,C[C@H]1CN([C@@H](C)CO)C(=O)c2ccccc2-c2ccccc2CO[C@H]1CN(C)Cc1cccnc1
?,/,/,O=C(Nc1ccc(F)cc1)N1CCCCN2[C@H](C1)[C@H](c1ccc(C#Cc3ccccc3)cc1)[C@@H]2CO
1,1,0.0,O=C(NCc1ccc(F)cc1)[C@@H]1[C@@H](CO)[C@@H]2Cn3c(cccc3=O)[C@H]1N2CC1CC1
-1,0,-0.7,CC=Cc1ccc2n(c1=O)C[C@@H]1[C@@H](CO)[C@H](C(=O)NCCc3ccncc3)[C@H]2N1CCc1ccccc1 (mixture of isomers)
-7,-13,5.5,CCC(=O)N1CC2(C1)[C@H](c1ccccc1)[C@@H](CO)N2Cc1cccc(Cl)c1
?,/,/,Cc1ccccc1S(=O)(=O)N(C)C[C@H]1OCc2ccccc2-c2c(n(C)c3ccccc23)C(=O)N([C@H](C)CO)C[C@H]1C
5,2,2.8,C[C@H]1CN([C@@H](C)CO)C(=O)Cc2cc(NC(=O)c3ccncc3)ccc2O[C@H]1CN(C)Cc1ccc2c(c1)OCO2
2,1,1.0,CN(C)CC(=O)Nc1ccc2c(c1)[C@H]1C[C@H](CC(=O)NC3CCCCC3)O[C@@H](CO)[C@H]1O2
5,7,-1.7,COCC#Cc1ccc([C@H]2[C@@H](CO)N3C(=O)CN(C(=O)Nc4ccc(F)cc4)C[C@H]23)cc1
?,/,/,COc1ccc(C#Cc2ccc3c(c2)[C@H]2[C@H](CCN2Cc2ccncc2)[C@@H](CO)N3)cc1
0,0,0.6,C[C@H](CO)N1C[C@H](C)[C@@H](CN(C)S(=O)(=O)c2cccs2)OCc2ccccc2-c2ccccc2C1=O
1,-8,8.8,N#C[C@@H]1[C@@H](c2ccc(-c3cccnc3)cc2)[C@H](CO)N1C(=O)C1CCC1
28,20,7.7,CCC(=O)N1CCCCN2[C@H](C1)[C@@H](c1ccc(-c3cccnc3)cc1)[C@@H]2CO
21&20,24&12,-3.6&7.7,Fc1ccc(F)c(CN2[C@@H]3CNC[C@H]2C3c2ccc(-c3ccncc3)cc2)c1 (stereo partly drawn)
?,/,/,CC(C)NC(=O)N1CCCCN2[C@H](CO)[C@H](c3ccc(C#Cc4ccccc4)cc3)[C@H]2C1
5,0,5.2,O=C(C[C@H]1CC[C@H]2[C@@H](COC[C@H](O)CN2Cc2ccccc2)O1)N1CCOCC1
-8,-7,-1.7,CN1c2ccc(-c3ccccc3F)cc2[C@@H]2[C@@H](CCN2C(=O)Nc2cc(F)ccc2F)[C@@H]1CO
?,/,/,CN1c2ccc(C#Cc3cccnc3)cc2[C@@H]2[C@@H](CCN2C(=O)C2CCCCC2)[C@H]1CO
-5&-2,-7&-4,1.8&2.7,CCC(=O)Nc1ccc2c(c1)OC[C@@H](C)N(Cc1ccccc1F)C[C@@H](C)[C@@H](OC)CN(C)C2=O
0,-5,5.8,CC(=O)N1[C@H](CO)[C@@H](c2ccccc2)[C@@H]1CN(C)C(=O)CN1CCOCC1
1,3,-2.4,C[C@@H]1CCCCO[C@@H](CN(C)Cc2ccc(C(F)(F)F)cc2)[C@H](C)CN([C@H](C)CO)C(=O)c2cc(NC(=O)Nc3cccc4ccccc34)ccc2O1
3,2,0.5,CNC(=O)C[C@@H]1CC[C@H]2[C@H](COc3ccc(NC(=O)c4cnccn4)cc3C(=O)N2C)O1
-1,1,-1.7,C[C@H]1CN([C@@H](C)CO)C(=O)c2cccc(N(C)C)c2O[C@@H]1CN(C)C(=O)NC1CCCCC1
-2,-12,11,COCC(=O)N1CC(=O)N2[C@H](CO)[C@@H](c3ccc(C#Cc4cccnc4)cc3)[C@@H]2C1
11,4,7.3,O=C(C[C@H]1C[C@H]2c3cc(NC(=O)CC4CC4)ccc3O[C@H]2[C@@H](CO)O1)NCC(F)(F)F
3,-4,6.5,N#C[C@@H]1[C@@H](c2ccc(C#Cc3cccc(F)c3)cc2)[C@@H](CO)N1C(=O)C1CCC1
0,-1,0.5,COc1ccc(CN(C)C[C@@H]2OCCCC[C@H](C)Oc3ccc(NS(C)(=O)=O)cc3C(=O)N([C@H](C)CO)C[C@H]2C)cc1
3,7,-4.1,Cc1cccc(-c2ccc([C@@H]3[C@H]4CN(S(=O)(=O)c5cccs5)CCCCN4[C@H]3CO)cc2)c1
-1,-4,3.0,CO[C@@H]1CN(C)C(=O)c2ccc(NS(=O)(=O)c3c(C)noc3C)cc2OC[C@H](C)NC[C@H]1C
-1,1,-1.8,C[C@@H]1CN([C@@H](C)CO)C(=O)c2cc(NC(=O)Nc3ccc4c(c3)OCO4)ccc2O[C@@H]1CN(C)C
9,7,1.4,COC(=O)C[C@H]1CC[C@@H]2[C@H](COc3ccc(NC(=O)NC(C)C)cc3C(=O)N2C)O1
-6,-2,-4.3,Cc1ccc(S(=O)(=O)Nc2ccc3c(c2)C(=O)N([C@@H](C)CO)C[C@H](C)[C@@H](CN(C)Cc2ccc(C(F)(F)F)cc2)O3)cc1
2,1,0.8,C[C@@H]1CCCCO[C@H](CN(C)C(=O)Nc2ccc3c(c2)OCO3)[C@H](C)CN([C@@H](C)CO)C(=O)c2cc(NS(=O)(=O)c3ccc(F)cc3)ccc2O1
0,4,-3.6,CC=Cc1ccc2n(c1=O)C[C@@H]1[C@@H](CO)[C@H](C(=O)Nc3ccccc3)N(CC)[C@H]21 (mixture of isomers)
1,-1,2.0,O=C(C[C@@H]1CC[C@@H]2[C@H](COC[C@@H](O)CN2CC2CCOCC2)O1)NCC1CCCCC1

Following part.
DUX4 txn inh,DUX4 txn inh difference,DUX4 txn inh control,Compound
-4,-7,2.4,Cc1cccc(S(=O)(=O)N2C[C@H]3[C@@H](c4ccccc42)[C@@H](CO)N3C(=O)CC2CC2)c1
?,/,/,CCCNC(=O)[C@@H]1[C@@H](CO)[C@@H]2Cn3c(ccc(/C=C/c4ccccc4)c3=O)[C@@H]2N1CC1CC1
5,8,-2.4,CCCNC(=O)C[C@H]1CC[C@H]2[C@@H](COC[C@H](O)CN2C(=O)C2CCOCC2)O1
?,/,/,CN1c2ccc(-c3ccccc3F)cc2[C@H]2[C@H](CCN2C(=O)Nc2ccc(F)cc2)[C@H]1CO
0,-2,1.7,O=C(NCCN1CCCC1)c1cc2c(c(-c3cccc(C4=CCCC4)c3)n1)[C@@H](CCO)N(CC1CC1)C2
-6,-4,-2.1,CCCNC(=O)Nc1ccc2c(c1)OC[C@@H](C)N(CC1CCCC1)C[C@@H](C)[C@@H](OC)CN(C)C2=O
?,/,/,O=C(C[C@H]1CC[C@H]2[C@@H](COC[C@H](O)CN2Cc2cc(F)ccc2F)O1)N1CCc2ccccc2C1
14,4,10,CCNC(=O)C[C@@H]1CC[C@H]2[C@@H](COC[C@@H](O)CN2C(=O)C2CCOCC2)O1
-2,-2,-0.7,C[C@@H]1CN([C@H](C)CO)C(=O)c2cc(NC(=O)CCC(F)(F)F)ccc2O[C@@H](C)CCCCO[C@@H]1CN(C)S(=O)(=O)c1ccccc1
2,2,0.4,CC[C@@H]1CC=CC[C@@H](C)Oc2ccccc2C(=O)N(C)[C@@H](C)C(=O)N1 (mixture of isomers)
9,13,-4.5,Cn1cnc(S(=O)(=O)N2C[C@@H](O)COC[C@@H]3O[C@H](CC(=O)N4CCN(c5ccccc5)CC4)CC[C@H]32)c1
2,-1,3.1,C[C@H]1CN([C@@H](C)CO)C(=O)CCCn2cc(nn2)CO[C@H]1CN(C)Cc1cccc(C(F)(F)F)c1

Laid out differently: results already given
| smiles | DUX4 txn inh | DUX4 txn inh difference | DUX4 txn inh control |
| --- | --- | --- | --- |
| CCCNC(=O)[C@@H]1[C@@H](CO)[C@@H]2Cn3c(ccc(/C=C/c4ccccc4)c3=O)[C@@H]2N1CC1CC1 | ? | / | / |
| CCCNC(=O)C[C@H]1CC[C@H]2[C@@H](COC[C@H](O)CN2C(=O)C2CCOCC2)O1 | 5 | 8 | -2.4 |

More structures:
DUX4 txn inh,DUX4 txn inh difference,DUX4 txn inh control,Compound
?,/,/,O=C(Nc1cccc(F)c1)N1CC(=O)N2[C@@H](CO)[C@@H](c3ccc(C#CCC4CCCC4)cc3)[C@@H]2C1
-1,-1,-0.4,C/C=C/c1ccc2c(c1)O[C@H](CN(C)Cc1ccc(C(=O)O)cc1)[C@@H](C)CN([C@H](C)CO)S2(=O)=O
?,/,/,Cc1ccc(S(=O)(=O)Nc2ccc3c(c2)C(=O)N([C@@H](C)CO)C[C@H](C)[C@H](CN(C)C(=O)NC2CCCCC2)OCCCC[C@H](C)O3)cc1
0,-3,3.0,O=C(Nc1cccc(Cl)c1)N1C[C@@H]2[C@H](c3ccccc31)[C@@H](CO)N2C(=O)c1ccncc1
3,-1,4.2,O=C(Nc1ccccc1Cl)N1C[C@@H]2[C@H](c3ccccc31)[C@@H](CO)N2C(=O)c1cccnc1
0,1,-1.1,CC(C)(C)S(=O)N1Cc2cc(C(=O)NCc3ccc(Oc4ccccc4)cc3)nc(-c3cccc(C#CCC4CCCC4)c3)c2[C@@H]1CCO (stereo partly drawn)
-1,1,-1.2,CN1C(=O)c2cc(NC(=O)c3cnccn3)ccc2OC[C@@H]2O[C@@H](CC(=O)N[C@H]3CCN(Cc4ccccc4)C3)CC[C@H]21

Six compounds drawn at random from those above:
DUX4 txn inh,DUX4 txn inh difference,DUX4 txn inh control,Compound
-1,-1,-0.4,C/C=C/c1ccc2c(c1)O[C@H](CN(C)Cc1ccc(C(=O)O)cc1)[C@@H](C)CN([C@H](C)CO)S2(=O)=O
?,/,/,O=C(Nc1cccc(F)c1)N1CC(=O)N2[C@@H](CO)[C@@H](c3ccc(C#CCC4CCCC4)cc3)[C@@H]2C1
-1,1,-1.2,CN1C(=O)c2cc(NC(=O)c3cnccn3)ccc2OC[C@@H]2O[C@@H](CC(=O)N[C@H]3CCN(Cc4ccccc4)C3)CC[C@H]21
0,-3,3.0,O=C(Nc1cccc(Cl)c1)N1C[C@@H]2[C@H](c3ccccc31)[C@@H](CO)N2C(=O)c1ccncc1
?,/,/,Cc1ccc(S(=O)(=O)Nc2ccc3c(c2)C(=O)N([C@@H](C)CO)C[C@H](C)[C@H](CN(C)C(=O)NC2CCCCC2)OCCCC[C@H](C)O3)cc1
3,-1,4.2,O=C(Nc1ccccc1Cl)N1C[C@@H]2[C@H](c3ccccc31)[C@@H](CO)N2C(=O)c1cccnc1

The list is partial; count on the stated rates, not on these rows.
